rRNA inh HTS: inhibits bacterial ribosomal RNA function over humanized ribosomes. E. coli WT GFP vs humanized-ribosome RFP mutants, fluorescence, 24 h; hits give low values; DMSO median 0, no signal -100. GFP signal change (wild-type ribosome), % (concentration not given with the values). actives 1.6% (n = 350,000). AID 720706;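 active means significant combined selectivity score with lowered wild-type GFP, culture density cut under 30%, mutant RFP and density less affected; inactive means any of these conditions unmet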; further: one replicate is shown; some compounds called inactive have numbers as strong as hits
FGF22 binding: binders of recombinant human FGF22 by thermal shift; SYPRO orange fluorescence; percent of sucrose octasulfate shift, DMSO zero; calls only at 9.99 µM; actives 1.5% (n = 340,000);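 active means melting point raised past a set limit in the mean and every replicate; three in four hits are not shown here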
Target sequence (Q9HCT0 whole entry, looked up): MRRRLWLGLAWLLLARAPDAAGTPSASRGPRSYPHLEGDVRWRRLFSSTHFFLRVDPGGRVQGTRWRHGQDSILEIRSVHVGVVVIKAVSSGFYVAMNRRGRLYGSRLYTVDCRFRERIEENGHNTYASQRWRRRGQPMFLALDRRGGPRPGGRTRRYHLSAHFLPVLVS
rRNA inh HTS OD600: further read-out of rRNA inh HTS, marked with its call; OD600 change, %; measured here: OD600 growth;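 optical density of the mix in the first replicate; 0 = DMSO median and -100 = no signal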
rRNA inh HTS RFP: also measured in rRNA inh HTS; calls as there; RFP signal change, %; measured here: RFP humanized mutant strains;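 first replicate; 0 = DMSO median and -100 = no signal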
Numbers without * were called inactive; i = inactive; + = active, no number.

SMILES	rRNA inh HTS	rRNA inh HTS OD600	rRNA inh HTS RFP	FGF22 binding
COc1ccc(S(=O)(=O)Nc2ccc3c(c2)C(=O)N([C@H](C)CO)C[C@@H](C)[C@H](CN(C)C(=O)Cc2ccccc2)OCCCC[C@H](C)O3)cc1	0	9	10	i
CCC(=O)Nc1ccc2c(c1)OC[C@H](C)N(Cc1nccs1)C[C@H](C)[C@H](OC)CN(C)C2=O	-5	-4	-2.5	i
CCCNC(=O)[C@H]1[C@H](CO)[C@H]2Cn3c(ccc(-c4ccccc4F)c3=O)[C@H]2N1CC1CC1	3	8	-3.2	i
Cc1noc(C)c1NC(=O)Nc1ccc2c(c1)C(=O)N([C@@H](C)CO)C[C@@H](C)[C@@H](CN(C)C(=O)C1CCCCC1)OCCCC[C@H](C)O2	-2	-4	-0.8	i
CO[C@H]1CN(C)C(=O)c2ccc(NC(=O)c3ccccc3)cc2OC[C@H](C)N(C(C)=O)C[C@@H]1C	-1	1	-2.0	i
C[C@H](CO)N1C[C@H](C)[C@@H](CN(C)Cc2ccc(Oc3ccccc3)cc2)Oc2ccc(NS(=O)(=O)c3cccs3)cc2C1=O	-4	-28	5.7	i
Cc1cc(C(=O)Nc2cccc3c2O[C@@H](CN(C)C)[C@H](C)CN([C@H](C)CO)C3=O)n(C)n1	1	10	-1.8	i
CN(C)CC(=O)N1[C@@H]2c3ccc(-c4cccnc4)c(=O)n3C[C@H]1[C@H](CO)[C@H]2C(=O)NC1CCC1	4	1	-1.4	i
O=C(Nc1cccc(Cl)c1)N[C@@H]1CC[C@H](CCNC(=O)C2CCC2)O[C@@H]1CO	-3	-1	2.7	i
CC(=O)N1[C@@H](CO)[C@@H](c2ccccc2)C12CN(Cc1nccs1)C2	2	6	-3.7	i
C[C@H](CO)N1C[C@H](C)[C@@H](CN(C)C(=O)CN2CCOCC2)Oc2ncc(C3=CCCC3)cc2C1=O	2	6	-3.8	i
C[C@@H]1CN([C@H](C)CO)C(=O)Cc2cc(NC(=O)Cn3cnnn3)ccc2O[C@@H]1CN(C)S(=O)(=O)c1ccc(F)cc1	4	-2	0.6	i
C[C@@H]1CN([C@@H](C)CO)C(=O)c2cc(NC(=O)Cc3ccccc3)ccc2O[C@@H]1CN(C)C(=O)Nc1ccccc1	2	4	1.0	i
Cc1ccc(S(=O)(=O)Nc2ccc3c(c2)CC(=O)N([C@H](C)CO)C[C@@H](C)[C@@H](CN(C)Cc2ccc4c(c2)OCO4)O3)cc1	-54	-73	-10	i
O=C(C[C@@H]1C[C@H]2c3cc(NC(=O)NC4CCCC4)ccc3O[C@H]2[C@H](CO)O1)NCc1ccccn1	1	8	-1.2	i
C[C@H]1CCCCO[C@H](CN(C)S(=O)(=O)c2cn(C)cn2)[C@@H](C)CN([C@@H](C)CO)C(=O)c2cc(NS(=O)(=O)c3cccs3)ccc2O1	0	2	0.7	i
C[C@@H]1CN([C@H](C)CO)C(=O)c2cc(NS(=O)(=O)c3cn(C)cn3)ccc2O[C@@H]1CN(C)S(=O)(=O)c1ccccc1	7	1	-2.1	i
C[C@@H]1CN([C@H](C)CO)S(=O)(=O)c2ccc(C3=CCCC3)cc2O[C@H]1CN(C)CC1CCCC1	-1	-11	3.2	i
CO[C@H]1CN(C)C(=O)c2ccc(NS(C)(=O)=O)cc2OC[C@@H](C)N(Cc2cncnc2)C[C@@H]1C	1	1	-0.3	i
C/C=C/c1ccc([C@H]2[C@@H](CO)N3CCCCN(C)C[C@H]23)cc1	5	10	-1.0	i
Cc1ccc(S(=O)(=O)N(C)C[C@H]2OCCCC[C@H](C)Oc3ccc(NS(=O)(=O)c4ccc(F)cc4)cc3C(=O)N([C@@H](C)CO)C[C@@H]2C)cc1	-2	4	-1.1	i
CCNC(=O)C[C@H]1C=C[C@H](NC(=O)C2CC2)[C@H](CO)O1	6	5	0.6	i
C[C@@H]1CN([C@@H](C)CO)C(=O)c2cc(/C=C/c3ccccc3)cnc2O[C@@H]1CN(C)C(=O)CN1CCOCC1	-3	6	-2.9	i
Cn1cnc(S(=O)(=O)N[C@@H]2C=C[C@H](CC(=O)Nc3ccc(-c4ccccc4)cc3)O[C@H]2CO)c1	-2	2	-1.6	i
O=C(Nc1cc(F)ccc1F)N[C@@H]1CC[C@@H](CC(=O)N2CCc3ccccc3C2)O[C@@H]1CO	-8	-12	-1.8	i

Not a retest: an excerpt of the list.
SMILES	rRNA inh HTS	rRNA inh HTS OD600	rRNA inh HTS RFP	FGF22 binding
Cc1ccc(S(=O)(=O)Nc2ccc3c(c2)CC(=O)N([C@H](C)CO)C[C@@H](C)[C@@H](CN(C)Cc2ccc4c(c2)OCO4)O3)cc1	-54	-73	-10	i
O=C(C[C@@H]1C[C@H]2c3cc(NC(=O)NC4CCCC4)ccc3O[C@H]2[C@H](CO)O1)NCc1ccccn1	1	8	-1.2	i
C[C@H]1CCCCO[C@H](CN(C)S(=O)(=O)c2cn(C)cn2)[C@@H](C)CN([C@@H](C)CO)C(=O)c2cc(NS(=O)(=O)c3cccs3)ccc2O1	0	2	0.7	i
C[C@@H]1CN([C@H](C)CO)C(=O)c2cc(NS(=O)(=O)c3cn(C)cn3)ccc2O[C@@H]1CN(C)S(=O)(=O)c1ccccc1	7	1	-2.1	i
C[C@@H]1CN([C@H](C)CO)S(=O)(=O)c2ccc(C3=CCCC3)cc2O[C@H]1CN(C)CC1CCCC1	-1	-11	3.2	i
CO[C@H]1CN(C)C(=O)c2ccc(NS(C)(=O)=O)cc2OC[C@@H](C)N(Cc2cncnc2)C[C@@H]1C	1	1	-0.3	i
C/C=C/c1ccc([C@H]2[C@@H](CO)N3CCCCN(C)C[C@H]23)cc1	5	10	-1.0	i
Cc1ccc(S(=O)(=O)N(C)C[C@H]2OCCCC[C@H](C)Oc3ccc(NS(=O)(=O)c4ccc(F)cc4)cc3C(=O)N([C@@H](C)CO)C[C@@H]2C)cc1	-2	4	-1.1	i
CCNC(=O)C[C@H]1C=C[C@H](NC(=O)C2CC2)[C@H](CO)O1	6	5	0.6	i
C[C@@H]1CN([C@@H](C)CO)C(=O)c2cc(/C=C/c3ccccc3)cnc2O[C@@H]1CN(C)C(=O)CN1CCOCC1	-3	6	-2.9	i
Cn1cnc(S(=O)(=O)N[C@@H]2C=C[C@H](CC(=O)Nc3ccc(-c4ccccc4)cc3)O[C@H]2CO)c1	-2	2	-1.6	i
O=C(Nc1cc(F)ccc1F)N[C@@H]1CC[C@@H](CC(=O)N2CCc3ccccc3C2)O[C@@H]1CO	-8	-12	-1.8	i

Continued.
SMILES	rRNA inh HTS	rRNA inh HTS OD600	rRNA inh HTS RFP	FGF22 binding
Cc1noc(C)c1NC(=O)N(C)C[C@H]1Oc2ccc(NC(=O)Cc3ccccc3)cc2CC(=O)N([C@@H](C)CO)C[C@@H]1C	3	0	-2.4	i
C[C@@H]1CN([C@@H](C)CO)C(=O)c2cc(NC(=O)Cn3cnnn3)ccc2O[C@H]1CN(C)Cc1ccc(-c2ccccc2)cc1	-4	3	5.4	i
COCC(=O)N1CC2(C1)CN(C(=O)COC)[C@@H](CO)c1c2c2ccc(OC)cc2n1C	5	8	0.7	i
C/C=C/c1ccc([C@@H]2[C@H](CO)N(C(=O)CC)[C@H]2CNC(=O)CC)cc1	3	8	0.2	i
O=C(NC1CCC1)[C@@H]1[C@@H](CO)[C@@H]2Cn3c(ccc(-c4cncnc4)c3=O)[C@H]1N2CCc1ccccc1	-4	-3	-2.2	i
CN(C)CC(=O)Nc1ccc2c(c1)[C@@H]1C[C@H](CC(=O)NCc3ccccn3)O[C@H](CO)[C@@H]1O2	4	-5	-0.6	i
COCC(=O)N1[C@H](C#N)[C@@H](c2ccccc2-c2ccccc2)[C@@H]1CO	8	26	-3.2	i
CN1C(=O)c2cc(NC(=O)c3cscn3)ccc2OC[C@H]2O[C@H](CC(=O)NCC3CC3)CC[C@H]21	4	6	-1.0	i
CCc1cnc(N2[C@H](CO)[C@H](c3ccc(C#CC(C)C)cc3)[C@@H]2C#N)s1	-1	-34	9.3	i
CC(C)(C)[S@](=O)N1Cc2cc(C(=O)NCc3ccccn3)nc(-c3cccc(-c4ccccc4F)c3)c2[C@@H]1CCO	-6	-5	17	i
CC(C)C#Cc1ccc2c(c1)O[C@H](CN(C)C(=O)Nc1ccccc1)[C@H](C)CN([C@@H](C)CO)S2(=O)=O	-5	-13	-1.2	i
COc1ccccc1NC(=O)N[C@H]1CC[C@@H](CCn2cc(C3(O)CCCC3)nn2)O[C@@H]1CO	0	1	-2.3	i
O=C(N[C@H]1CC[C@@H](CCNC(=O)C2CCC2)O[C@H]1CO)c1ccncc1	-1	-8	-3.3	i
C[C@H]1CN([C@@H](C)CO)C(=O)c2cccc(NS(=O)(=O)c3ccccc3)c2O[C@H]1CN(C)Cc1ccc(-c2ccccc2)cc1	-3	5	1.9	i
C[C@H](CO)N1C[C@H](C)[C@H](CN(C)S(=O)(=O)c2ccccc2)Oc2ncc(C#Cc3cccc(F)c3)cc2C1=O	-5	-15	-0.3	i
COCCNC(=O)C[C@@H]1CC[C@@H]2[C@H](COc3ccc(NC(C)=O)cc3C(=O)N2C)O1	1	3	0.4	i
CN1C(=O)c2cc(NC(=O)c3cccc(F)c3)ccc2OC[C@@H]2O[C@H](CC(=O)N3CCc4ccccc4C3)CC[C@@H]21	-9	-16	-1.3	+
C[C@@H]1CCCCO[C@H](CN(C)S(=O)(=O)c2ccccc2)[C@H](C)CN([C@H](C)CO)C(=O)c2cc(N(C)C)ccc2O1	-4	-5	2.0	i
COc1ccc(S(=O)(=O)N(C)C[C@H]2OCCCC[C@H](C)Oc3ccc(NS(=O)(=O)c4ccc(Cl)cc4)cc3C(=O)N([C@H](C)CO)C[C@H]2C)cc1	0	12	1.7	i
COc1ccccc1-c1ccc([C@H]2[C@@H](CO)N3CCCCN(C(=O)c4cccnc4)C[C@H]23)cc1	-2	-5	-1.5	i
C[C@@H]1CCCCO[C@@H](CN(C)Cc2ccc3c(c2)OCO3)[C@@H](C)CN([C@H](C)CO)C(=O)c2cc(NC(=O)Nc3ccccc3)ccc2O1	2	-8	6.7	i
C[C@@H]1CN([C@H](C)CO)C(=O)Cc2cc(NC(=O)c3ccncc3)ccc2O[C@H]1CN(C)S(=O)(=O)c1cccs1	2	7	-1.5	i
CCc1cc2c(nc1CC)CCCN2Cc1ccc(Br)cc1	-26*	-10*	14*	i
C[C@H]1CN([C@@H](C)CO)C(=O)c2cccc(NC(=O)c3cnccn3)c2O[C@H]1CN(C)S(C)(=O)=O	2	16	-1.0	i
C[C@@H]1CN([C@H](C)CO)C(=O)Cc2cc(N(C)C)ccc2O[C@H]1CN(C)C(=O)Nc1ccc(C(F)(F)F)cc1	-1	3	-0.5	i
SMILES	rRNA inh HTS	rRNA inh HTS OD600	rRNA inh HTS RFP	FGF22 binding
C[C@H]1CN([C@@H](C)CO)C(=O)c2c(c3ccccc3n2C)-c2ccccc2CO[C@H]1CN(C)Cc1cccc(C(=O)O)c1	2	4	-4.1	i
O=C(c1cccc(F)c1)N1CCCCN2[C@H](C1)[C@H](c1ccc(C#CC3(O)CCCC3)cc1)[C@@H]2CO	-1	-8	2.4	i
Cc1ccc(S(=O)(=O)Nc2ccc3c(c2)C(=O)N(C)[C@@H]2CC[C@H](CC(=O)NCCc4ccncc4)O[C@@H]2CO3)cc1	0	21	-0.4	i
COc1ccc(CN(C)C[C@H]2Oc3ccc(NC(=O)Nc4cccc5ccccc45)cc3CC(=O)N([C@H](C)CO)C[C@H]2C)cc1	-1	-9	11	i
C[C@H]1CN([C@@H](C)CO)C(=O)c2cccc(NC(=O)Nc3cccc4ccccc34)c2O[C@@H]1CN(C)C(=O)Nc1ccccc1	-3	-4	1.1	i
Cc1noc(C)c1S(=O)(=O)Nc1ccc2c(c1)CC(=O)N([C@H](C)CO)C[C@@H](C)[C@H](CN(C)C(=O)Nc1ccc(C(F)(F)F)cc1)O2	1	6	0.1	i
CN1C(=O)c2cc(NS(=O)(=O)c3cccc(F)c3)ccc2OC[C@H]2O[C@@H](CC(=O)NCCN3CCCCC3)CC[C@@H]21	3	14	-1.5	i
C[C@@H]1CCCCO[C@@H](CN(C)C(=O)Nc2ccc3c(c2)OCO3)[C@H](C)CN([C@@H](C)CO)C(=O)c2cc(NC(=O)CCCN(C)C)ccc2O1	-1	6	-0.8	i
C[C@H]1CCCCO[C@@H](CN(C)C(=O)C2CCCCC2)[C@@H](C)CN([C@@H](C)CO)C(=O)c2cc(NS(=O)(=O)c3cn(C)cn3)ccc2O1	-1	6	0.7	i
C[C@@H]1CCCCO[C@@H](CN(C)Cc2ccc(C(=O)O)cc2)[C@@H](C)CN([C@@H](C)CO)C(=O)c2cc(NS(=O)(=O)c3cccs3)ccc2O1	2	-1	-0.8	i
C[C@@H]1CN([C@H](C)CO)C(=O)c2cc(NC(=O)Cn3cnnn3)ccc2O[C@@H]1CN(C)S(C)(=O)=O	0	-4	0.2	i
CCCC(=O)Nc1ccc2c(c1)C(=O)N(C)C[C@@H](OC)[C@H](C)CN(C(=O)Cc1cccnc1)[C@H](C)CO2	2	2	-1.5	i
CC(C)NC(=O)N(C)C[C@@H]1Oc2ccc(NC(=O)C3CCCCC3)cc2CC(=O)N([C@H](C)CO)C[C@H]1C	-1	-3	-1.5	i
COC(=O)C1=C(C)N(Cc2ccc(C(F)(F)F)cc2)C(=NCC2CC2)NC1c1cccc(Cl)c1 (stereo not drawn)	-54	-82	-11	i
CCCNC(=O)[C@@H]1[C@@H](CO)[C@@H]2Cn3c(ccc(C4=CCCC4)c3=O)[C@H]1N2C(=O)CC	-1	-1	-1.1	i
O=C(C1CC1)N1CC2(C1)[C@@H](c1ccccc1)[C@@H](CO)N2C(=O)c1cccnc1	-1	-6	-2.3	i

Compound activity from PubChem.

Only part of the results is shown, so the mix of outcomes need not match the whole.
